Screening results: PubChem, several laboratories
Vif A3G – inhibitors of Vif binding to APOBEC3G peptide, primary screen, biochemical, TR-FRET, GST-Vif 1-94, biotin-A3G peptide, dose response retest (AID 1117319); one-dose inhibition, %; IC50 in µM for titrated hits; actives 0.57% (n = 260,000); TR-FRET GST-Vif / biotin-A3G peptide binding; higher % means a stronger effect; test concentration not given here; strong numbers were not always called active;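 active = above the screen mean plus three standard deviations and confirmed in dose response; inconclusive = results disagree or hit not tested in dose response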;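 also: Vif residues 1-94 fused to GST binding biotinylated APOBEC3G peptide 110-148; 0% = full assay without inhibitor and 100% = GST in place of GST-Vif; retest series ran down from 100 µM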
AF4-AF9 inh – blocks AF4 peptide binding to human AF9; AlphaScreen, biotin-AF4 peptide binding to FLAG-AF9; inhibition, % at 10 µM; P42568; actives 0.47% (n = 350,000); AID 651704;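 active = every replicate reaching a set inhibition limit, whatever the replicate mean, cut at about 25% in these data; inconclusive = mean inhibition reaches that limit but some replicates miss it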;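 also: 0% = plate neutral control median and 100% = total signal loss; the record names both 10 and 1 µM as test concentration; the first replicate is given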
Target sequence (P42568 whole entry, looked up): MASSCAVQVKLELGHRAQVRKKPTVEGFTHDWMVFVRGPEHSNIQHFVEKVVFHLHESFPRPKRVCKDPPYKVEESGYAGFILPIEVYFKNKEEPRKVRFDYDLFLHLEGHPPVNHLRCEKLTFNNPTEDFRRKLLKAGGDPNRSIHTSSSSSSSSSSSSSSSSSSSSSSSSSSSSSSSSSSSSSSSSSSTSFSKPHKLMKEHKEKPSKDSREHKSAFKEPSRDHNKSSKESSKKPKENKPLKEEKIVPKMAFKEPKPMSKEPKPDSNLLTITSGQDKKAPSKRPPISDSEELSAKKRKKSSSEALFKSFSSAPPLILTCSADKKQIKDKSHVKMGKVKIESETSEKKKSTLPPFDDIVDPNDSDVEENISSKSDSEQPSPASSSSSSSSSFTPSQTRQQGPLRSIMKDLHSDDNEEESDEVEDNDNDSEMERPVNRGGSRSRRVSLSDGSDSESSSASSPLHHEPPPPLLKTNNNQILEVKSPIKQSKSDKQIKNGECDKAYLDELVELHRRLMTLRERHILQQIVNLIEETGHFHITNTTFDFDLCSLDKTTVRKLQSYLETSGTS
An asterisk follows results filed as active; u = inconclusive; & = joins results of further samples.

SMILES	Vif A3G	AF4-AF9 inh
CN(C)C(=O)CCc1ccc2c3c([nH]c2c1)[C@]1(C)[C@@H](C(=O)N2CCCCC2)C[C@H](CC(=O)NCc2ccco2)C(=O)N1CC3	3%	-0.5
COc1ccccc1N1CCN(C(=O)c2cc(-c3ccccc3)nc3c2cnn3C(C)C)CC1	0%	1.7
c1ccc(CCc2ccccn2)cc1	5%	-0.8
O=C(COc1ccc(Br)cc1Cl)NNC(=O)c1ccccc1	u	-5.2
[O-][N+](=Cc1ccccc1)c1ccc(Cl)cc1	-7%	-2.1
O=C(Cc1ccc(NC(=O)C2CCCN(C(=O)C3CC3)C2)cc1)Nc1cccc(C(=O)N2CCCCC2)c1 (configuration not stated)	0%	-2.3
COc1ccc(/C=C/C(=O)OCC(=O)c2cc(C)ccc2C)cc1	-7%	-0.6
CN(CC(=O)Nc1c(Cl)cccc1Cl)CC(=O)N1CCc2ccccc21	-2%	-0.8
Cc1cc(C)cc(NC(=O)COC(=O)Cc2ccccc2F)c1	3%	-3.9
CCOC(=O)C1=C(C(=O)OCC)N(CC)CCC1=O	1%	-5.9
CCN1C(=O)[C@H]2[C@@H](c3ccc(C)cc3)N[C@]3(CCCN(Cc4ccc(F)cc4)C3=O)[C@H]2C1=O	11%	-2.4
O=C1CC[C@@H](C(=O)N2CSC[C@@H]2C(=O)Nc2ccc(C(F)(F)F)cc2)N1	6%	-8.9
O=C(O)C=Cc1c[nH]c2nccnc12	-10%	-2.7
COc1cc2c(cc1[N+](=O)[O-])-c1ccccc1C2	-8%	-1.8
O=C(c1cc(Cl)cc(Cl)c1)N1CCC2CC1c1cc(N3CCCCC3)ccc12 (configuration not stated)	3%	10
CC(=O)Nc1cccc(/C(C)=N/NC(=O)c2cccc(S(=O)(=O)N3CCCC3)c2)c1	-6%	-0.9
Cn1cnc2nc[nH]c2c1=S	0%	-3.1
CC(=NCc1ccccc1)c1ccccc1O	-2%	-0.4
CCNc1nc2c(cnn2C)c(=O)[nH]1	8%	-3.7
CC1(C)COC(Cc2ccccc2)=N1	-7%	-1.9
COc1cc(OC)cc(C(=O)NCC(=O)OCc2ccc(Cl)c(Cl)c2)c1	-8%	0.5
Cc1cc(N2CCOCC2)nc(N2CCOCC2)c1C#N	-5%	1.6
Cc1cc(OCC(=O)OCC(=O)N2CCc3ccccc32)ccc1Cl	-4%	-2.8
CC(OC(=O)c1ccc(Br)o1)C(=O)Nc1ccc2c(c1)OCCO2 (configuration not stated)	-2%	-0.6
Cc1ccnn1CCC(=O)N1CCCC(Nc2ccc(C(C)C)cc2)C1 (configuration not stated)	6%	2.6
CCOc1ccc(C(C)=O)cc1COC(=O)c1ccc2c(c1)NC(=O)CS2	-17%	0.7
CC(C)C1C(=O)N(Cc2cn(CCC3OCCCO3)nn2)CCS(=O)(=O)N1Cc1ccc(-c2ccncc2)cc1 (configuration not stated)	-5%	-1.6
CC(C)N1CCOC1c1ccccc1 (configuration not stated)	-2%	-0.5
COc1cccc(N=CNc2cccc(OC)c2)c1	-1%	7.0
O=C(CCc1nc2ccccc2c(=O)[nH]1)Nc1ccccc1N1CCCCC1	-9%	-9.3
Nc1c(N(Cc2ccco2)C(=O)c2cccc(F)c2)c(=O)[nH]c(=O)n1Cc1ccccc1	2%	-5.4
O=C(Nc1cccc(Cl)c1)c1nc[nH]c1C(=O)Nc1ccccc1F	-4%	-1.6
NNC(=O)c1ccncc1	10%	-0.7
COc1ccc(C2=CC(=O)C[C@H](CN3C(=O)c4ccccc4C3=O)N(C(=O)OC(C)(C)C)O2)cc1	2%	4.3
CC1=C(C(=O)N(C)C)CC(CC(=O)NCc2cccc3ccccc23)C(=O)N1Cc1ccccc1 (configuration not stated)	2%	3.7
O=C(Nc1ccccc1)c1nc[nH]c1C(=O)Nc1ccccc1F	1%	-3.4

An excerpt of these results, with two lines to a compound.
Sequence of screens – Vif A3G | AF4-AF9 inh
- CC(OC(=O)c1ccc(Br)o1)C(=O)Nc1ccc2c(c1)OCCO2 (configuration not stated)
 : -2% | -0.6
- c1ccc(CCc2ccccn2)cc1
 : 5% | -0.8
- [O-][N+](=Cc1ccccc1)c1ccc(Cl)cc1
 : -7% | -2.1
- CCN1C(=O)[C@H]2[C@@H](c3ccc(C)cc3)N[C@]3(CCCN(Cc4ccc(F)cc4)C3=O)[C@H]2C1=O
 : 11% | -2.4

Going on with the list.
SMILES	Vif A3G	AF4-AF9 inh
O=C(O)C(CCc1ccccc1)N1C(=O)c2ccccc2C1=O (configuration not stated)	-4%	0.1
CCN(CC)c1ccc(C(=O)NNC(=O)Cn2c(=O)cnc3ccccc32)cc1	-4%	-0.8
COc1ccc(C(=O)CSc2nc3nn(-c4ccccc4)c(=O)c-3c3n2CCCCC3)c(OC)c1	-1%	0.0
O=C(CSc1nnc(-c2ccccc2F)n1C1CC1)N1CCCC1	0%	1.0
NN=C1c2ccccc2-c2ccc(N)cc21	0%	12
COc1ccccc1NC(=O)CN(Cc1ccco1)C(=O)c1ccc(N2CCCC2=O)cc1	-4%	1.8
CCN(CC)C(=O)C(C)N1c2cccc3cccc(c23)S1(=O)=O (configuration not stated)	3%	2.0
O=C(NCC(c1ccco1)N1CCCC1)c1cccc(S(=O)(=O)N2CCc3ccccc32)c1 (configuration not stated)	5%	8.2
CSc1nnc2sc3cc(C)ccc3n12	5%	-3.1
COc1ccc([C@H]2N[C@]3(CCCN(Cc4ccccc4)C3=O)[C@H]3C(=O)N(Cc4ccccc4)C(=O)[C@@H]23)cc1	-6%	1.0
COCc1c(C(=O)Nc2nnc(C3CC3)s2)oc2ccccc12	-5%	-3.5
COc1ccc(COC(=O)CCCN=C2NS(=O)(=O)c3ccccc32)cc1F	-2%	-0.4
COC(=O)c1c(C)[nH]c(C(=O)OC(C)C(=O)NC2CCCCC2C)c1C (configuration not stated)	u	-1.3
OCc1ccccc1Cn1ccnc1	-2%	-0.5
O=C(NCc1ccccc1Cl)C1CCN(C(=O)c2ccc(F)cc2)CC1	4%	-3.7
COc1cc2nc(-c3ccccc3)nc(N3CCCC3)c2cc1OC	0%	0.3
Cc1cc(=O)n2nc(N3CCCC(C(=O)NCCCN4C(C)CCCC4C)C3)sc2n1 (configuration not stated)	-2%	-6.1
CCOC(=O)c1c(C)[nH]c(C)c1C(=O)COC(=O)/C=C/c1cccc([N+](=O)[O-])c1	-1%	8.3
COc1ccccc1OCC(=O)N1CCCCCC1	-1%	0.7
CC1CCC(=NNS(=O)(=O)c2ccc([N+](=O)[O-])cc2)CC1 (configuration not stated)	-7%	-3.9
COc1ccc(CN2C(=O)C(CC(=O)NCc3cccc4ccccc34)CC(C(=O)N(C)C)=C2C)cc1 (configuration not stated)	0%	1.5
CCOC(=O)C1C(=O)CC(C)(O)C(C(=O)OCC)C1/C=C/c1ccccc1 (configuration not stated)	-1%	2.1
CCS(=O)(=O)c1nc(S(=O)(=O)c2ccc(C)cc2)c(N2CCCCCC2)s1	-2%	3.6
Cc1c(CC(=O)N2CCC(O)CC2)c(=O)oc2cc3c(cc12)CCC1(CCCCC1)O3	2%	1.2

Fetched by structure from above, 3 records:
SMILES	Vif A3G	AF4-AF9 inh
O=C(NCc1ccccc1Cl)C1CCN(C(=O)c2ccc(F)cc2)CC1	4%	-3.7
CCOC(=O)c1c(C)[nH]c(C)c1C(=O)COC(=O)/C=C/c1cccc([N+](=O)[O-])c1	-1%	8.3
CC1CCC(=NNS(=O)(=O)c2ccc([N+](=O)[O-])cc2)CC1 (configuration not stated)	-7%	-3.9

Continued.
SMILES	Vif A3G	AF4-AF9 inh
O=C(O)C1OC(C(=O)O)C(C(=O)O)C1C(=O)O (configuration not stated)	0%	-3.6
O=C(NCc1ccc(F)cc1)C1CCCN1S(=O)(=O)c1ccc(F)cc1 (configuration not stated)	-7%	-1.0
O=C1OCC/C1=C1/NCCNC1=O	-6%	2.5
O=C(C[C@H]1C[C@H](C(=O)N2CCOCC2)[C@@]2(CCC3CCCC3)c3[nH]c4cc(-c5ccco5)ccc4c3CCN2C1=O)NCc1ccco1	0%	-0.3
CSc1ncnc2c1ncn2CCCN1CCN(c2ccccn2)CC1	4%	-2.9
CCN(Cc1nc2cc(Cl)ccc2c(=O)[nH]1)C(=O)COc1ccccc1Cc1ccccc1	-1%	0.8
CCCc1c(C(=O)N/N=C/c2ccc(-c3ccccc3)cc2)nnn1-c1nonc1N	-3%	-7.9
CCc1cc(-c2nnn(-c3cc(C(C)C)ccc3C)c2CC)ccc1-c1cn(CCc2c[nH]c3ccccc23)nn1	-7%	2.7
CC(=O)Nc1c(Cl)cc(Cl)c2c1Cc1cc(Cl)ccc1-2	-80%	0.1
O=C1CCC(C(=O)OCC(=O)Nc2ccc(OC(F)F)cc2)=NN1	1%	-7.4
O=[N+]([O-])c1cccc2nc3ccccc3c(NCCCn3ccnc3[N+](=O)[O-])c12	3%	-1.2
COCCN(C(=S)Nc1ccc(OC)c(Cl)c1)C1CCN(C(C)=O)CC1	2%	-2.2
CCOC(=O)/C(=C/c1ccc(OC(F)F)cc1)C1=Nn2c(nnc2-c2ccc(Cl)cc2)SC1	-3%	-1.2
CCN(CC)C(=O)C1=C(C)N(Cc2ccccc2)C(=O)C(CC(=O)NCCc2ccccn2)C1 (configuration not stated)	-1%	-4.2
Cc1nc(SCC(=O)N2CCCC2=O)c2c(C)c(C)sc2n1	-19%	-3.9
Cc1ccc(S(=O)(=O)N(C)CC(=O)N(C)Cc2cccs2)cc1	-7%	-1.7
O=C1C=CC(=Nc2ccc(F)cc2)O1	7%	-2.2
O=C(Nc1cc([N+](=O)[O-])c2[nH]c(=O)c3ccccc3c2c1)C(F)(F)F	-7%	-0.6
CN1C(=O)[C@H]2[C@@H](c3ccc(C(F)(F)F)cc3)N[C@]3(CCCN(Cc4cccn4C)C3=O)[C@H]2C1=O	-1%	5.8
Cc1cc(C(=O)Nc2cccc(S(=O)(=O)N3CCCC3)c2)c2ccccc2n1	2%	0.8
CC(=O)Nc1cccc(NC(=O)c2cc([N+](=O)[O-])ccc2N2CCCCC2)c1	8%	6.0
CN1OC[C@@H]2CN[C@H](c3ccc(-c4ccccc4)cc3)C[C@@H]21	-5%	1.7
CCC(C)c1ccc(S(=O)(=O)N2CCN(C(=O)CN3C(=O)NC(C)(C4CC4)C3=O)CC2)cc1 (configuration not stated)	18%	5.0
CCOC(=O)c1c(C)[nH]c(C(=O)OCC(=O)NCc2ccco2)c1C	-2%	1.3
Cc1cccc(C)c1NC(=O)CN(C)C(=O)C1CC(=O)N(c2cccc3ccccc23)C1 (configuration not stated)	2%	-4.0
CCOc1ccc(N=Cc2ccccc2O)cc1	2%	0.4
CC(=O)c1ccc2c(c1)CCN2	10%	-4.0
O=C1[C@H]2[C@@H](c3ccc(C(F)(F)F)cc3)N[C@]3(CCCN(Cc4ccc(Cl)cc4)C3=O)[C@H]2C(=O)N1Cc1ccccc1	-4%	-1.3
Cc1c(NC(=O)c2cc3ccccc3o2)cccc1-n1cnnn1	-4%	-6.1
CNC(=O)c1ccc(CN(C)C(=O)c2cccc(S(=O)(=O)N3CCc4ccccc4C3)c2)cc1	5%	-5.9
COc1ccc(Nc2ccc3ccccc3c2)cc1	3%	18
C[C@H](O)[C@@H]1C(=O)N2CCc3ccc(N4CCN(C)CC4)cc3[C@@H]2C[C@@H]1N(C)C(=O)c1cccnc1	-4%	-3.6
COc1ccc(C(=O)OCC(=O)NC23CC4CC(CC(C4)C2)C3)c(O)c1	1%	-11
COC(=O)[C@]1(C)N[C@H](CN(C)S(=O)(=O)c2ccc(-c3ccccc3)cc2)[C@@H]2C(=O)N(C)C(=O)[C@@H]21	9%	-7.7
OCC1OC(n2cnc3c(SCc4ccccc4)ncnc32)C(O)C1O (configuration not stated)	-1%	3.6
CCn1c(C)cc(C(=O)CSc2nnc(C3CC3)n2C2CC2)c1C	2%	3.5
Cc1cc(NS(=O)(=O)c2ccc(NC(=O)c3ccc(Cl)nc3)cc2)nc(C)n1	5%	-4.9
O=C1NC(Cc2ccc(O)cc2)c2nc3ccc(Br)cc3c(=O)n2-c2cc3ccccc3cc21 (configuration not stated)	3%	1.0
O=C(CN1CCN(S(=O)(=O)c2ccc(Br)s2)CC1)N1CCc2ccccc21	-3%	0.6
CCOC(=O)c1ccc(S(=O)(=O)N2CCC(C(=O)NCC3COc4ccccc4O3)CC2)cc1 (configuration not stated)	-4%	-3.6
CCc1ccccc1NC(=O)CNC(=O)CCC(=O)c1cc(C)sc1C	1%	-2.2
c1ccc2c(c1)-c1nc3ccccc3cc1C2N1CCOCC1 (configuration not stated)	-3%	2.7
Cc1ccc(S(=O)(=O)N2C[C@H]3n4c(=O)ccc(=O)n4C[C@H](OC(=O)NC4CC4)[C@@]3(O)C2)cc1	2%	-1.0
CSCCC(NC(C)=O)C(=O)Oc1ccc2c3c(c(=O)oc2c1)CCCC3 (configuration not stated)	11%&5%	1.3
CC1CN(CCN2CC(C)N(C=O)CC2C)C(C)CN1C=O (configuration not stated)	8%	-1.3
Cc1cccc(NC(=O)c2cnc3ccccn3c2=O)c1	2%	-6.1

Full records from above.
Record of CSCCC(NC(C)=O)C(=O)Oc1ccc2c3c(c(=O)oc2c1)CCCC3 (configuration not stated) = Vif A3G: 11%&5%; AF4-AF9 inh: 1.3
Record of CC1CN(CCN2CC(C)N(C=O)CC2C)C(C)CN1C=O (configuration not stated) = Vif A3G: 8%; AF4-AF9 inh: -1.3

An excerpt; count on the stated rates, not on these rows.
